HCMV UL50-53 inh – cytomegalovirus nuclear egress complex inhibition | HTRF UL50-UL53 interaction, normalized percent inhibition | inhibition, % (no concentration beside the values) | 190,000 tested, 0.15% active;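 active = both replicates at 50% or more, plus weaker picks with an unusually low signal ratio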;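 note: stock transfer was 100 nL into about 20 µL; 0% = negative control wells and 100% = wells with untagged competitor protein; inactives centre near -12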
GIV-Gai inh – GIV-Galpha-i interaction inhibition; Galpha-i3/FITC-GIV peptide fluorescence polarization, 90 min; active compounds read low; scaled: aluminum fluoride 0%, vehicle 100%; percent of control (FP), % (no concentration beside the values); 210,000 tested, 0.42% active;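 active = replicate mean at 85% of control or lower, very high polarization wells dropped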;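 note: wells of about 15 µL received 100 nL stock; the first replicate is given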
Target sequence (P08753 whole entry, looked up): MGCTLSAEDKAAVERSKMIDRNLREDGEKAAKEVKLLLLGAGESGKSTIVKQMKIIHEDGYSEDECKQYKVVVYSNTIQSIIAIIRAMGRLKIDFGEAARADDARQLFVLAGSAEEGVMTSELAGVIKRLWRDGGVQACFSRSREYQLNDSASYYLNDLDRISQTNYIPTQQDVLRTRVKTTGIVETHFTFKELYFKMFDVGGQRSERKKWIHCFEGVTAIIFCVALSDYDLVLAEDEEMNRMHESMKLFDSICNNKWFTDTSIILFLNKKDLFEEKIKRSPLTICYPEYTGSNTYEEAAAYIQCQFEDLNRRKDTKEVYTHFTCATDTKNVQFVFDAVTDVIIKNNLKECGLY
Sa growth 42C – blocks Staphylococcus aureus growth; relative growth, % (test concentration not listed); 170,000 tested, 0.53% active; S. aureus RN4220 growth, OD600, 20 h, 42 °C; active compounds read low;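 active = growth at 42 °C up to 50% and 20 or more points under that at 30 °C, or under 10% at both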;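 note: 300 nL library stock went into each well; scaled to the means of positive and negative controls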
Sa growth 42C second temp – recorded beside Sa growth 42C, whose call it bears; relative growth, %; measured here: growth at 30 °C;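 optical density after 20 h as mean of two plates; 100% = untreated growth and lower means inhibition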
The depositor's hits bear a star; · = no result given; & = joins results of further samples. No enrichment for hits, and some 0.83% of all compounds hit somewhere here.

no.	smiles	HCMV UL50-53 inh	GIV-Gai inh	Sa growth 42C	Sa growth 42C second temp
1	O=C(/C=C/c1ccco1)Nc1cccc(C(F)(F)F)c1	-30	104	97	90
2	CCc1ccccc1NC(=O)c1ccc(=O)n(Cc2ccc(F)cc2)c1	·	106	106	85
3	COc1ccc(-c2n[nH]c(CCNC(=O)c3ccc(Cl)cc3)n2)cc1	-4	96	·	·
4	O=C1CCC(=O)N1CCn1c2ccccc2c2nc3ccccc3nc21	-49&-51	106&105	112	96
5	Cn1ncc(Br)c1NC(=O)c1ccco1	-14	100	106	90
6	Cc1cc(NCCc2ccccc2)n2ncc(-c3ccc(F)cc3)c2n1	-4	103	·	·
7	COc1ccc(NC(=O)c2nnc(COCC(=O)NCc3cccnc3)s2)cc1	-57	102	·	·
8	COc1ccc(CCC(=O)Nc2n[nH]c3nc4cc(OC)ccc4cc23)cc1	·	99	85	85
9	Cc1cc(C)cc(NC(=O)C2CCCN2S(=O)(=O)c2ccc3nc(-c4ccccc4)[nH]c3c2)c1 (stereo not given)	·	106	96	67
10	CCOC(=O)Nc1ccc2c(CN(C)CC(=O)Nc3cccc(C)c3C)cc(=O)oc2c1	-12	·	93	96
11	CCn1c(-c2cccs2)c(CN(CCOC)C(=O)Nc2ccccc2)c2ccccc21	-30	102	87	86
12	O=C(Cn1nc(-c2ccccc2)c2cc(Cl)ccc21)NC1CC1	1	101	103	90
13	CCOC(=O)c1ccc(N2C(=N)S/C(=C\c3ccc(OC)c(OC)c3OC)C2=O)cc1	-12	103	·	·
14	O=C(O)C1CC=CCC1C(=O)N(Cc1ccccc1)c1ccccc1 (stereo not given)	-18	97	104	93
15	C=CCNC(=O)C(C)(C)Oc1ccc(Cl)cc1	-8	105	104	91
16	O=C(COC(=O)c1ccc(Cl)cc1)NC1CC1	-6	·	81	82
17	CCOC(=O)N1CCC(NC(=O)c2cc3cc4ccc(OC)cc4nc3o2)CC1	-15	102	93	89
18	NNC(=S)Nc1ccc(C(F)(F)F)cc1Cl	-7	105	11	1
19	CC(C)(C)C(=O)CSc1n[nH]c(=O)n1-c1ccccc1C(F)(F)F	-12	96	101	88
20	CCOc1ccccc1C(=O)Nc1cc(-c2nc3cccnc3s2)ccc1C	-3	106	96	85

Single records, as listed above.
NNC(=S)Nc1ccc(C(F)(F)F)cc1Cl as listed: HCMV UL50-53 inh = -7; GIV-Gai inh = 105; Sa growth 42C = 11; Sa growth 42C second temp = 1
O=C(COC(=O)c1ccc(Cl)cc1)NC1CC1 as listed: HCMV UL50-53 inh = -6; GIV-Gai inh = ·; Sa growth 42C = 81; Sa growth 42C second temp = 82
O=C(O)C1CC=CCC1C(=O)N(Cc1ccccc1)c1ccccc1 (stereo not given) as listed: HCMV UL50-53 inh = -18; GIV-Gai inh = 97; Sa growth 42C = 104; Sa growth 42C second temp = 93

Following part:
no.	smiles	HCMV UL50-53 inh	GIV-Gai inh	Sa growth 42C	Sa growth 42C second temp
21	CSc1nc2c(sc3ccccc32)c(=O)n1CC1CCCO1 (stereo not given)	8	97	93	85
22	CC1(C)CC(=O)c2c(NCc3ccco3)sc(C#N)c2C1	-12	101	90	81
23	N#Cc1c(SCC(=O)c2ccc(F)cc2)nsc1SCC(=O)c1ccc(F)cc1	-8	115	85	77
24	CC(=O)OCC1OC(n2ccc3ccccc32)C(OC(C)=O)C(OC(C)=O)C1OC(C)=O (stereo not given)	-15	99	81	91
25	Cn1c(COc2ccc(Cl)cc2)nnc1SCCN1C(=O)c2ccccc2S1(=O)=O	-3	·	100	88
26	Cc1c(C(=O)NCc2ccccc2Cl)oc2ccc(S(=O)(=O)N3CCC(C)CC3)cc12	-15	102	·	·
27	CC(C)(C)C1(C)OC(C(N)=O)C(C(N)=O)O1 (stereo not given)	7	107	103	100
28	CCn1c(=O)c(=O)[nH]c2cc(C(=O)Nc3cc(Cl)c(N)c(Cl)c3)ccc21	-2	·	81	100
29	CN1C(=O)/C(=N\N=C\c2c(O)[nH]c(=O)[nH]c2=O)c2ccccc21	-30	·	98	91
30	CCN(CC)C(=O)C[n+]1cccc(C(N)=O)c1	-14	107	100	89
31	CN1CCN(CCOCCOc2ccc(Cl)c(Cl)c2)CC1	2	97	116	85
32	CN(C)c1nc2ncnc(SCC(=O)Nc3cc(F)ccc3F)c2s1	-20	103	·	·
33	c1ccc(-c2ccc(C(c3ccccc3)n3ccnc3)cc2)cc1 (stereo not given)	-39&26&-6&-7	106	1.6*	6.2*
34	Brc1ccc(-c2ccc(SCc3nc(-c4ccc5c(c4)OCO5)no3)nn2)cc1	12	107	·	·
35	CC(=O)c1cccc(Nc2ncnc3ccc(Br)cc23)c1	-5	105	·	·
36	Cn1c(CCc2cccc(NC(=O)c3cnccn3)c2)nc2ccccc21	-23	108	·	·
37	O=c1[nH]cnc2nc(N3CCOCC3)sc12	4	103	·	·
38	CCOC(=O)c1c(NC(NC(=O)C(C)C)C(Cl)(Cl)Cl)sc(C(=O)Nc2ccccc2)c1C (stereo not given)	-14	99	·	·
39	Cc1nc2nncn2c(N2CCN(c3ccccc3)CC2)c1C	-9	107	109	90
40	Cc1nn(CC(=O)NCc2ccccc2Cl)c(=O)c2cccn12	-16	102	122	94
41	Cc1cccn2c(=O)c(C(=O)NCCc3ccc(S(N)(=O)=O)cc3)c(O)nc12	-10	98	99	90
42	Cc1nc(C)c(-c2ccn[nH]2)s1	-30	109	94	93
43	FC(F)(F)c1cc(-c2ccco2)nc2c(-c3ccccc3)cnn12	-29	102	94	84
44	NC(=O)c1nnc(C(Nc2ccc(F)cc2)c2cccc(Cl)c2)o1 (stereo not given)	-30	106	85	91
45	CCc1ccc(CN(Cc2ccco2)C(=O)COc2ccc(Cl)cc2C)cc1	-28	106	102	88
46	Cc1nc2cccnc2n1C1CCN(C(=O)Nc2ccccc2C(F)(F)F)CC1	·	102	105	89
47	O=C(Nc1ccc(F)cc1)c1cc(-c2ccncc2)n[nH]1	-3	101	·	·
48	CC1CCN(c2ccc(N3CCN(S(C)(=O)=O)CC3)nn2)CC1	-42	105	89	91
49	Cc1sc2nc(SCC(=O)c3ccc(O)c(O)c3)[nH]c(=O)c2c1C	·	102	39	24
50	COc1ccc(C2CCCN2C(=O)Nc2cc(Cl)c(OC)cc2OC)cc1 (stereo not given)	-28	99	·	·
51	Cc1ccc(CNC(=O)c2ccc(Cl)c(S(N)(=O)=O)c2)n1C	-18	·	104	79
52	O=C(COC(=O)c1cc(Cl)ccc1O)c1ccc(S(=O)(=O)N2CCCCC2)cc1	-12	·	91	89
53	O=S(=O)(NNc1ccccc1)c1cccs1	-26	101	98	84
54	CC1(C)Cc2cccc(OCc3nc4ccccc4[nH]3)c2O1	-43	·	107	84
55	O=C(NC1CCCC1)c1cnn(-c2ccc(Br)cc2)c1	-16	102	·	·
56	Cc1ccc(NC(=O)c2c3c(nc4ccccc24)CCCC3)cc1	-7	·	98	94
57	O=C(CSC1=Nc2ccccc2N=C(c2ccccn2)C1)NCc1ccc(Cl)cc1	-23	103	·	·
58	O=S(=O)(c1ccc(-c2noc(-c3cc4cc(Cl)ccc4[nH]3)n2)cc1)N1CCCC1	-19	110	·	·
59	COc1ccc(OC)c2[nH]c(=O)c(CCNC(=O)C(C)C)cc12	-33	103	83	86
60	Cc1ccc2cc3cc(C(=O)N4CCCC4)oc3nc2c1	-32	101	89	95
61	COC(=O)c1cccnc1-n1c(=O)c2cccnc2n(CC(=O)Nc2ccccc2F)c1=O	12	100	102	89
62	Cc1cc(C)c(N=Cc2nc(-c3ccccc3)oc2O)c(C)c1	-28	·	66	71
63	Cc1ccc(C(O)c2nccn2C)o1 (stereo not given)	-20	·	98	88
64	CCOC(=O)C1C(=O)C=C(Nc2sc3c(c2C#N)CCCC3)CC1c1cccc(OC)c1 (stereo not given)	-14	·	87	84
65	O=c1[nH]cc(NCc2ccccc2)c(=O)[nH]1	-7	101	97	94
66	CC1(C)CC(=O)C2=C(C1)OC(N)=C(C#N)C2c1ccccc1OC(=O)N1CCOCC1 (stereo not given)	-37	104	·	·
67	Cc1[nH]n(-c2cccc(Cl)c2)c(=O)c1N=O	8	106	95	89
68	COCCCOc1ccnc(CS(=O)c2nc3ccccc3[nH]2)c1C (stereo not given)	-47&-5	·	98&93	95&91
69	Cc1c(NC=C(C#N)C#N)c(=O)n(-c2ccccc2)n1C	-9	109	118	93
70	Cc1ccc(OCC(=O)Nc2ccccc2OCc2cc(=O)n3ccccc3n2)cc1C	·	114	96	101

Other results follow.
no.	smiles	HCMV UL50-53 inh	GIV-Gai inh	Sa growth 42C	Sa growth 42C second temp
71	Cc1nnsc1C(=O)OCc1cc(F)cc(F)c1	-8	99	105	96
72	CCN1c2cc(C)ccc2-n2cccc2C12CCN(S(=O)(=O)c1cc(OC)ccc1OC)CC2	-38	101	·	·
73	CCNC(=O)CN1C(=O)COc2ccc(C)cc21	-14	103	105	97
74	CCC(C)n1c(=N)c(C(=O)NC2CCCC2)cc2c(=O)n3ccccc3nc21 (stereo not given)	-121	100	114	97
75	O=C(NCCc1ccc(Cl)cc1)c1ccc(CS(=O)(=O)Cc2ccccc2F)o1	·	103	93	82
76	Cc1ccccc1CN1C(=O)c2ccccc2Sc2ccc(C(=O)NC(C)c3ccccc3)cc21 (stereo not given)	·	97	134	98
77	C=CCN(CC=C)S(=O)(=O)c1ccc(NC(=O)c2cccs2)cc1	1	108	95	94
78	CC1(C)CC(=O)c2cnc(NC3OC(=O)c4ccccc43)nc2C1 (stereo not given)	-6	·	89	86
79	Cc1ccc2c(c1)N(C(=O)C1CCN(S(=O)(=O)c3c(C)noc3/C=C/c3ccccc3F)CC1)CCO2	·	102	106	100
80	O=c1c2ccccc2nc(SCc2ccc3c(c2)OCO3)n1-c1ccccc1	-4	·	106	100
81	CCOC(=O)C1CCCN(S(=O)(=O)c2cc(-c3cc(C)no3)ccc2C)C1 (stereo not given)	·	102	77	81
82	CC1CN(C(=O)COC(=O)CC2c3ccccc3CCN2S(=O)(=O)c2ccccc2)CC(C)O1 (stereo not given)	18	·	103	94
83	CC(=NCCc1c(C)[nH]c2ccccc12)c1c(C)[nH]n(-c2nc3ccccc3s2)c1=O	0	·	107	93
84	COCCn1c(N)c(N(Cc2ccccc2)C(=O)C2CC3C=CC2C3)c(=O)[nH]c1=O (stereo not given)	-6	·	102	99
85	Cc1noc2ncn(CC(=O)NCc3ccco3)c(=O)c12	-3	97	96	95
86	O=C1CCCC(O)=C1N=Nc1cc(C(F)(F)F)ccc1OCC(F)(F)F	-55	109	104	92
87	N#Cc1nc(-c2ccc(S(=O)(=O)N3CCOCC3)cc2)oc1N1CCCCC1	-35	103	·	·
88	Cc1ccc2c(CC(=O)OCc3cc(Cl)cc4c3OCOC4)coc2c1	-22	·	116	99
89	COc1cccc(NS(=O)(=O)c2ccc(CN3C(=O)c4cccnc4C3=O)cc2)c1	-32	105	101	94
90	CCOC(=O)c1c(NC(=O)Cc2ccc(OC)cc2)sc(C(=O)Nc2cc(C(F)(F)F)ccc2Cl)c1C	-12	97	·	·
91	CC(C)n1c(CN2CCN(c3cccc(Cl)c3)CC2)nc2c1c(=O)n(C)c(=O)n2C	-10	105	106	92
92	O=C1CCS(=O)(=O)N1c1ccc(S(=O)(=O)NC2CCCCC2)cc1	-26	109	·	·
93	C=Cc1ccc(Cn2nc3n(CCC)c(=O)c4ccc(C(=O)NC(C)CC)cc4n3c2=O)cc1 (stereo not given)	-8	107	·	·
94	CC(=O)c1cc(-c2ccccc2)n(CCC(=O)NC(C)c2ccccc2)c1C (stereo not given)	·	108	100	88
95	CCOC(=O)c1cc(NC(=O)N(CC)C2CCCCC2)c(C)nc1C	-9	·	104	93
96	CCN1CCSc2ccc(C(=O)Nc3c(F)c(F)c(F)c(F)c3F)cc21	-2	100	95	92
97	COc1cccc(-c2cc(C(=O)NCC(C)C)no2)c1	-25	99	100	82
98	Cn1cc(I)c(C(=O)n2cc(Br)cn2)n1	9	108	92	90
99	CCc1ccccc1NC(=O)Cc1ccc(Br)cc1	-5	·	116	91
100	Cc1ccc(NC(=O)c2ccc(-c3ccc([N+](=O)[O-])cc3)o2)cc1-c1nc2ncccc2o1	-3	102	·	·
101	Cc1ccc(-c2cc3ncc4c(n3n2)-c2cc(C)ccc2OC4)cc1	0&-23	103&100	101	82
102	O=C(C1CC1)N1CCc2cc(Br)cc(S(=O)(=O)N3CCN(c4ccccc4F)CC3)c21	8	105	106	87
103	Clc1ccccc1-c1nnc(C(c2ccccc2)N2CCC3(CC2)OCCO3)o1 (stereo not given)	-25	96	95	83
104	CCOc1cc2[nH]c(=O)n(CCCC(=O)N(C)Cc3ccccc3)c(=O)c2cc1OCC	0	104	100	77
105	CSc1ccc(CCNC(=O)C2CCCN(c3ncnc4c3nc3n4CCCCC3)C2)cc1 (stereo not given)	-24	103	90	73
106	CS(=O)(=O)N(CC(=O)N1CCc2ccccc2C1)c1ccccc1	·	102	70	70
107	CN(C)c1ccc(/C=C(\C#N)c2nc(-c3ccc(Cl)c(Cl)c3)cs2)cc1	-3	198	99	98
108	CCn1c(N2CCN(C(=O)Cc3ccccc3C)CC2)nc2ccccc21	-37	102	·	·

Bioassay records deposited in PubChem by ICCB-Longwood Screening Facility, Harvard Medical School.
